# Source: PubChem BioAssay (Fisher Drug Discovery Resource Center)
# NPYLR7 agonist – mosquito NPYLR7 agonism; AID 1259423; hit rate 0.15% among 270,000; activation, % at 10 µM; HEK293T NPYLR7/Galpha15, GCaMP6s calcium fluorescence; in the data active means activation above about 40%;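 further: 0% = vehicle and 100% = reference agonist at the receptor; some compounds past the cut are filed as inactive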
# NPYLR7 agonist max-min – second read-out of NPYLR7 agonist, no call of its own (marks repeat the call); activation, %; measured here: Max-Min RFU normalised activation; some inactives read as strong as hits;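 span of the calcium signal over five minutes; 0% = vehicle and 100% = native peptide agonist; compound fluorescence can raise it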
# The depositor's hits bear a star. Some of the compounds tested; the hit share may differ from the screen's.
# The first 2 compounds as a preview:
1: COCCn1c(SCc2ccc(C(=O)OC)cc2OC)nnc1-c1cc(-c2ccccc2)nc2ccccc12
2: O=C(CCNCC1(c2cccc(F)c2)CCOCC1)Nc1cccnc1
screen / no.	1	2
NPYLR7 agonist	-1	2
NPYLR7 agonist max-min	4	-1

# Main list, from the first entry:
1: COCCn1c(SCc2ccc(C(=O)OC)cc2OC)nnc1-c1cc(-c2ccccc2)nc2ccccc12
2: O=C(CCNCC1(c2cccc(F)c2)CCOCC1)Nc1cccnc1
3: CC(C)c1nc(CS(C)(=O)=O)n(-c2cccc3cccnc23)n1
4: COc1cccc(NC(=O)Cn2cnc3c(nnn3C)c2=O)c1
5: O=C(NN=Cc1ccc(F)cc1F)c1sc2ccccc2c1Cl
6: CC(=O)OCC(OC(C)=O)C(OC(C)=O)C(OC(C)=O)C(OC(C)=O)C(COC(C)=O)OC(C)=O (configuration not stated)
screen / no.	1	2	3	4	5	6
NPYLR7 agonist	-1	2	-1	0	-6	-12
NPYLR7 agonist max-min	4	-1	-4	12	-12	-16

7: CN(CC1CCCNC1)C(=O)c1ccc(CSc2ccccn2)cc1 (configuration not stated)
8: CC(C)Cc1nc2sc3c(NCCCO)ncnc3c2c2c1COC(C)(C)C2
9: COc1cc(C(=O)N2CCC3(CCNC(=O)CC3)CC2)ccn1
10: COC(=O)N1c2ccccc2C23[C@@H]4CN5CCC[C@]6(CCC12C(O)(C6)C4=O)[C@H]53
11: CC1(C(=O)Nc2cnc3ccccc3c2)CCN1Cc1cc2ccccc2o1 (configuration not stated)
12: O=C(Nc1ccnn1C1CCN(Cc2cccn2-c2nccs2)CC1)c1cccnc1
screen / no.	7	8	9	10	11	12
NPYLR7 agonist	-1	4	1	6	9	3
NPYLR7 agonist max-min	-1	4	-3	4	1	4

13: O=C(Nc1ccnn1C1CCS(=O)(=O)C1)C1CC(=O)N(c2ccccc2F)C1 (configuration not stated)
14: CON=C(C(=O)N[C@@H]1C(=O)N2C(C(=O)O)=C(COC(N)=O)CS[C@H]12)c1ccco1
15: COc1ccc(-c2cc(NC(=O)c3cccc(F)c3)n(-c3cc(Cl)ccc3Cl)n2)cc1
16: CC(C)Oc1ccc(C(=O)N2CCN(c3ncnc4c3nnn4C)CC2)cc1
17: CC(C)(C)n1nc2c(c1NC(=O)Cc1cccc3ccccc13)CS(=O)C2 (configuration not stated)
18: COCCN(CC(=O)Nc1nc(CC(=O)NCc2cccc(C(F)(F)F)c2)cs1)C(=O)c1ccco1
screen / no.	13	14	15	16	17	18
NPYLR7 agonist	5	-1	22	1	-4	-3
NPYLR7 agonist max-min	2	-8	19	15	-6	9

19: Cc1cc(C)cc(-c2ccc(-n3cncc3C(=O)NCc3ccc(S(N)(=O)=O)cc3)cc2)c1
20: Brc1ccc(C#Cc2ccccc2)cc1
21: COC(=O)C1=C(C)NC(C)=C(C(=O)O)C1c1cccc([N+](=O)[O-])c1 (configuration not stated)
22: O=C(Nc1c[nH]c2ccccc12)N1CCCCC1
23: COc1ccc(S(=O)(=O)N(C(C)=O)c2ccccc2/C=C/c2cc[n+]([O-])cc2)cc1
24: Cc1ccc(C(=O)NCCc2nnc3ccc(NCCCN4CCOCC4)nn23)cc1
screen / no.	19	20	21	22	23	24
NPYLR7 agonist	-2	2	14	0	-10	10
NPYLR7 agonist max-min	-17	12	12	-4	-12	0

25: Nc1ccc(Br)nc1N1CCOCC1
26: CCOc1ccc(NC(=O)COc2ccc3c4c(c(=O)oc3c2)CCC4)cc1
27: Cc1nc(Nc2cccc(Br)c2)nc(Nc2cccc(Br)c2)c1[N+](=O)[O-]
28: CC(C)c1nn(CN2CCCCC2C2OCCO2)c(=S)o1 (configuration not stated)
29: COc1ccc(C(O)=C2C(=O)C(=O)N(CCN(C)C)C2c2ccc(O)cc2)c(C)c1 (configuration not stated)
30: CCC(CC)C(=O)Nc1ccc(-c2cn3ccsc3n2)cc1
screen / no.	25	26	27	28	29	30
NPYLR7 agonist	7	6	-4	0	-4	-3
NPYLR7 agonist max-min	9	8	5	-1	-8	-3

# Record cards, from the list above. Order of screens: NPYLR7 agonist, NPYLR7 agonist max-min
# COc1ccc(C(O)=C2C(=O)C(=O)N(CCN(C)C)C2c2ccc(O)cc2)c(C)c1 (configuration not stated) as listed: -4, -8
# Cc1nc(Nc2cccc(Br)c2)nc(Nc2cccc(Br)c2)c1[N+](=O)[O-] as listed: -4, 5
# CCC(CC)C(=O)Nc1ccc(-c2cn3ccsc3n2)cc1 as listed: -3, -3
# CC(C)c1nn(CN2CCCCC2C2OCCO2)c(=S)o1 (configuration not stated) as listed: 0, -1
# CCOc1ccc(NC(=O)COc2ccc3c4c(c(=O)oc3c2)CCC4)cc1 as listed: 6, 8

# From no. 11 as far as 13, as listed above:
11: CC1(C(=O)Nc2cnc3ccccc3c2)CCN1Cc1cc2ccccc2o1 (configuration not stated)
12: O=C(Nc1ccnn1C1CCN(Cc2cccn2-c2nccs2)CC1)c1cccnc1
13: O=C(Nc1ccnn1C1CCS(=O)(=O)C1)C1CC(=O)N(c2ccccc2F)C1 (configuration not stated)
screen / no.	11	12	13
NPYLR7 agonist	9	3	5
NPYLR7 agonist max-min	1	4	2

# Following part.
31: CC(C)(C)C(=O)NCCCC(=O)O
32: Cn1c(CNC(=O)CCc2ccsc2)cc(Cl)c1Cl
33: O=C1OC(c2ccc(F)cc2)=NC1=Cc1ccc(N2CCOCC2)s1
34: CCCNC(=O)Cn1nc2c(c1NC(=O)c1cccs1)CSC2
35: Cc1ccc(S(=O)(=O)N2CCOC23CCN(C(=O)C(=O)Nc2ccccc2F)CC3)cc1
36: CCOc1ccc(N(CC(=O)Nc2ccccc2)S(C)(=O)=O)cc1
screen / no.	31	32	33	34	35	36
NPYLR7 agonist	-20	0	-5	-5	11	-9
NPYLR7 agonist max-min	-33	-1	1	-8	3	-14

37: COc1ccc(-c2nc3cc(C)ccn3c2NC(=O)CC(C)CC(C)(C)C)cc1 (configuration not stated)
38: COc1cncc(-c2nccc3[nH]nc(-c4cc(OC)c(OC)c(OC)c4)c23)c1
39: Cc1ccc(SCCCC(=O)Nc2ncnc3sccc23)cc1
40: CC(C)NC(=O)c1nnc2n1CCN(C(=O)c1ccc(Oc3ccccn3)cc1)C2
41: COCCn1c(O)c(C(C)=NCC(C)(C)N2CCOCC2)c(=O)[nH]c1=S
42: CC(C)CN1CCCC(CNC(=O)c2cc(=O)c3ccccc3o2)C1 (configuration not stated)
screen / no.	37	38	39	40	41	42
NPYLR7 agonist	-9	-3	5	7	0	8
NPYLR7 agonist max-min	-4	-2	6	4	-3	-2

43: CCCC(C)N(C)Cc1nnc(-c2ccc(Br)s2)o1 (configuration not stated)
44: CCC1CCCCN1CCCNC(=O)c1c(O)nc2scc(C)n2c1=O (configuration not stated)
45: CSc1cccc(NC(=O)c2cccnc2Nc2cc(Cl)ccc2C)c1
46: COc1cc(NCc2ccccc2CN2CCCC2=O)ncn1
47: Cc1ccsc1CN(Cc1ccc(F)cc1)Cc1nc(C(=O)NCCc2ccccn2)co1
48: COC(=O)c1ccc(-c2nc(CN3CCN(Cc4ccc(OC)cc4)C(=O)C3)c(C)o2)cc1
screen / no.	43	44	45	46	47	48
NPYLR7 agonist	-3	-1	2	5	14	10
NPYLR7 agonist max-min	3	24	2	4	19	0

49: CN(C1CCCCC1)S(=O)(=O)c1ccc(N)cc1
50: CC1CCN(c2nn3c(=O)c4c5c(sc4nc3c3ccccc23)CCCCC5)CC1
51: CC(Oc1ccccc1)C(=O)Nc1c2c(nn1CC(=O)NCc1ccco1)CSC2 (configuration not stated)
52: CC(=NNC(=O)CCn1nnc2ccccc21)c1ccccc1O
53: CCNC(=O)N1CCCC(C(=O)NC2CCCC[C@H]2N(Cc2ccc(Cl)cc2)S(=O)(=O)c2ccccc2)C1 (some centres not stated)
54: CSc1nc(C(=O)N(C)C2CCCN(C3Cc4ccccc4C3)C2)cs1 (configuration not stated)
screen / no.	49	50	51	52	53	54
NPYLR7 agonist	-6	2	-3	0	-3	7
NPYLR7 agonist max-min	-9	-1	4	1	4	3

# As entered above:
# NPYLR7 agonist max-min, no. 51 → 4
# NPYLR7 agonist, no. 52 → 0

# Next part
55: CN(Cc1ccccc1)c1nccnc1-c1ccccc1Oc1ccccc1
56: Cc1nnc(NC2CC3CCC2O3)s1 (configuration not stated)
57: CC(=O)Nc1ccc(CNC(=O)CN2CCC[C@H]2CN2CCCC2)cc1
58: O=C(COc1cccc(C(F)(F)F)c1)NCCOc1cc(N2CCCCC2)ncn1
59: O=C(CNC(=O)C1COc2ccccc2O1)N=Nc1c(O)[nH]c2ccc([N+](=O)[O-])cc12 (configuration not stated)
60: Cc1cccc(-c2noc(-c3ccc(S(=O)(=O)NCc4ccccc4)o3)n2)c1
61: c1ccc2c(c1)CCC(N1CCN(Cc3cc4n(n3)CCNC4)CC1)C2 (configuration not stated)
62: CCCCN(Cc1ccc(OS(C)(=O)=O)cc1)C(=O)/C=C/c1ccc([N+](=O)[O-])cc1
screen / no.	55	56	57	58	59	60	61	62
NPYLR7 agonist	-2	-4	6	4	-2	5	4	17
NPYLR7 agonist max-min	-7	571	6	3	-9	1	2	17
